Assay outcomes as filed in PubChem.
AmpC nodet inh – blocks E. coli AmpC beta-lactamase in absence of detergent | P00811 | AmpC nitrocefin hydrolysis, absorbance 480 nm, no detergent; potencies from a single point are estimates | Potency, µM (highest dose often 28.7 µM), inactives show at the top dose activity change, negative = inhibition | hit rate 1.8% among 71,000 | AID 585; active = falling curve, for most hits resting on a single point; inconclusive = weak or doubtful change; inactive = flat or rising curve; also: % of control where 0% means no effect; about half of the hits show no inhibition at the top dose; a quarter of the inactives give rising signals
Target sequence (P00811 whole entry, looked up): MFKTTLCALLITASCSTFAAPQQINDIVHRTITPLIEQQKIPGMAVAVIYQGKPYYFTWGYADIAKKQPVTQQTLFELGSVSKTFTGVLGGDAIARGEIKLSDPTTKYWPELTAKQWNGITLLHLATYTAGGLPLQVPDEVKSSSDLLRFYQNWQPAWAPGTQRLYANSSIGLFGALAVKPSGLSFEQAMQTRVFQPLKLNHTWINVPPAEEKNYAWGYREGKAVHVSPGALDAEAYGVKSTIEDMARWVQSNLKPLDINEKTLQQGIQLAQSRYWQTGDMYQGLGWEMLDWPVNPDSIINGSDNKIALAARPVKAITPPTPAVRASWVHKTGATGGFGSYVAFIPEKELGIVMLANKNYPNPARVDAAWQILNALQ
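Enzyme, pH 7.0 phosphate. Compound titrations were pre-incubated with AmpC for 15 min at room temperature before nitrocefin (stock 800 uM) addition; product formation was recorded at 480 nm every 20 s for 4 min.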
* marks the source's active call; other numbers are inactive results; & = joins results of further samples; [ ] = dose if it differs, or a comment. Potency is read from the fitted curve at half-maximal effect. These rows are one share of the data, so the mix of outcomes need not match the whole.

structure,AmpC nodet inh
O=C(Nc1nc(-c2ccc(S(=O)(=O)N3CCCC3)cc2)cs1)c1ccco1,-8%
N#CCSC1=Nc2ccccc2C2=NC(CCC(=O)N3CCN(c4ccccc4)CC3)C(=O)N12 (stereo unspecified),56%
CCOC(=O)C1C(=O)CC(C)(O)C(C(=O)OCC)C1c1cc(Br)ccc1OC (stereo unspecified),73%
COCC(=O)N(c1ccc(C(C)C)cc1)C1C=CS(=O)(=O)C1 (stereo unspecified),6%
Cc1cc(C(C)(C)C)c(OCCCN2CCOCC2)c(C(C)(C)C)c1,34%[5.75 µM]
Cc1nnc(SCc2cnc(-c3ccccc3)o2)[nH]c1=O,-5%
C=CCNC(=O)c1ccncc1,2%
CCCCNC(=O)c1ccc(N2CCOCC2)c(NS(=O)(=O)c2ccc(OC)cc2)c1,62%
CN(C)c1ccc(N(C)C)cc1,0%
COc1ccccc1-n1c(SCC(=O)Nc2ccc(F)cc2)nc2c(c1=O)SCC2,36%
CCCNC(=O)N1C2CCC1CC(O)(c1cccnc1)C2 (stereo unspecified),5%
Cn1c(=O)c(-c2ccc(Cl)cc2)nc2cnc(OCc3ccccc3)nc21,4%
CC(C)NC(=O)N1CC2(CCN(C(=O)c3ccco3)CC2)C1,2%
COc1ccc(N2CCN(CC(O)c3c[nH]c4ccc(OC)cc34)CC2C)cc1 (stereo unspecified),24%
Cc1ccc(-c2noc(CCC(=O)Nc3ccccc3N3CCN(C)CC3)n2)cc1,72%
Cc1ccc(-c2cc(-c3ccccc3)c(C#N)c(N)n2)o1,21%
O=C(Cn1cnc2c(nnn2Cc2ccc(Cl)cc2)c1=O)N1CCCc2ccccc21,15%
Cc1cc(C)nc(SCC(=O)c2ccc(O)cc2O)n1,4µM*[single pt active]
Cc1noc(C)c1C(=O)N1CCC[C@@]2(CCN(c3ccccn3)C2)C1,-5%
O=C(Oc1ccc2ccc(=O)oc2c1)N1CCOCC1,-4%
NC(=O)c1oc2ccccc2c1NC(=O)c1ccc(F)cc1,-12%
COc1cccc(-c2noc(C3CCCN(S(=O)(=O)c4cccc(Cl)c4C)C3)n2)c1 (stereo unspecified),5%
CN(C)CCSc1nnc2sc3ccccc3n12,1%
O=C(NCc1n[nH]c(=S)n1-c1cccc(Cl)c1)c1ccc(S(=O)(=O)N2CCCC2)cc1,4%
CCc1ccc(C(=O)CSC2=C(C#N)C(c3ccco3)C(C(C)=O)=C(C)N2)cc1 (stereo unspecified),13µM*
Cc1ccc(CCP(=O)(O)CN2CCOCC2)cn1,-4%
Nc1cccc(Cl)c1,-17%
COc1ccc(C(=O)N(c2ccccc2)C2C=CS(=O)(=O)C2)cc1 (stereo unspecified),13%
CC1(C)OC(=O)N(CCc2ccccc2)C1(C)O (stereo unspecified),9%
Cn1c(=O)c(C(=O)NCCO)c(O)c2ccccc21,10%
N=c1c2c3c(sc2ncn1CCN1CCOCC1)CCCC3,-8%
COC(=O)C1(C(F)(F)F)N=C2Sc3ccccc3N2C(N2CCOCC2)=N1 (stereo unspecified),18%
COc1ccc(C(=O)N2CCN(Cc3cc(OC)c(O)c(OC)c3)CC2)cc1OC,13%
O=C(c1cccc(S(=O)(=O)N2CCCC2)c1)c1cccc(S(=O)(=O)N2CCCC2)c1,33%
Cc1cc(N2CCN(c3nc(N4CCOCC4)nc4ccccc34)CC2)c2ccccc2n1,38%
N#CC(C#N)=Cc1ccc(O)c(O)c1,-8%&-22%
Cn1c(=O)c2c(nc(CN3CCN(Cc4ccccc4)CC3)n2Cc2ccccc2)n(C)c1=O,-9%
CCC(C)c1ccc(O)c(NC(=O)c2cncc(Br)c2)c1 (stereo unspecified),-19%
O=C(NCCN1CCOCC1)C1CCC(=O)N1C1CCCCC1 (stereo unspecified),-2%
COC(=O)c1ccc(CN(C)S(=O)(=O)c2ccc(C)cc2)o1,13%
COc1ccccc1N1CCN(C(CNC(=O)C2CCCCC2)c2cccnc2)CC1 (stereo unspecified),82%
CCN(CCNS(=O)(=O)c1ccc2[nH]c(=O)sc2c1)c1ccccc1,-3%
O=C(CSc1nc2ccccc2o1)NCCOc1ccccc1,12%
Cc1ccccc1OCC(=O)NCCN1CCCC1,-9%
C[C@@]1(O)CCOC(=O)C1,-15%[12.8 µM]
Cc1ccc(S(=O)(=O)c2c(N)n(/N=C/c3ccco3)c3nc4ccccc4nc23)cc1C,-20%
CC(=O)c1nc2ccccc2n1S(=O)(=O)c1ccc(Cl)cc1,-11%
Cc1c(C(=O)N2CCN(c3ccccc3)CC2)sc2ncnc(N3CCN(c4ccccc4)CC3)c12,76%
Cc1ccc(N2CCN(S(=O)(=O)c3ccc(F)cc3)CC2)c(C)c1,1%
Cc1cccc(OCC(O)Cn2c(-n3nc(C)cc3C)nc3c2c(=O)[nH]c(=O)n3C)c1 (stereo unspecified),51%

(listing goes on)
structure,AmpC nodet inh
c1cncc(-c2nccc(-n3ccnc3)n2)c1,8%
O=C(Nc1cccnc1)c1c(O)c2cccc3c2n(c1=O)CC3,99%
O=C(c1cc2c(=O)n3ccccc3nc2s1)N1CCOCC1,7%
CCn1c(=O)cc(NC2=NCC(C)CN2c2cccc(Cl)c2)n(C)c1=O (stereo unspecified),71%
CCn1c(COc2ccc(Cl)cc2)nnc1SCc1ccc(C#N)cc1,72%
CCn1c(=O)cc(SCC(=O)N2CCC(C)CC2)c2ccccc21,66%
Cc1oc(/N=C/c2ccccc2O)c(C#N)c1C,7%
CCC(C)(C)NC(=O)C(c1ccc(F)cc1)N(Cc1ccco1)C(=O)CCC(=O)Nc1ccccn1 (stereo unspecified),84%
Cn1c(=O)c2c(SCC(=O)N3CCN(c4ccccc4)CC3)nc(C3CC3)nc2n(C)c1=O,7%
Cc1c(NC(=O)C2CCCCN2S(=O)(=O)c2ccc(Cl)cc2)c(=O)n(-c2ccccc2)n1C (stereo unspecified),37%
Cc1cc(Br)ccc1N1C(=O)CC(=O)NC1=O,2%
O=C(c1csnn1)N1CCC2(CC1)CCN(c1ncccn1)CC2,15%
COC(=O)C1=C(C)N(C)C(C)=C(C(=O)OC)C1c1ccncc1,20%
Cc1ccc2nc(-c3cccc(S(=O)(=O)N(C)C)c3)cn2c1,45%
CN1CC[C@@H]2CN3CCc4cccc(c43)[C@H]2C1,7%
CC(=O)c1ccc(S(=O)(=O)N(Cc2cc3cc4c(cc3[nH]c2=O)OCCO4)CC2CCCO2)cc1 (stereo unspecified),47%
CC(C)c1cc(C(=O)Nc2cccc(Cl)c2)no1,-1%
CCOC(=O)c1ccc(N2CSC3=C(C#N)C(c4cccs4)CC(=O)N3C2)cc1 (stereo unspecified),2.5µM*
Fc1ccccc1N1CCN(Cc2nc(-c3ccccc3)no2)CC1,-6%
COc1cccc(Nc2nc(=O)[nH]nc2C)c1,-6%
COc1ccc(N2CCC(CNC(=O)Nc3ccc(OC)cc3OC)C2)cc1 (stereo unspecified),13%
COC(=O)c1[nH]c2cccc(OC)c2c1NC(=O)CCN1CCN(c2ccccc2F)CC1,101%
COc1ccc(-c2nnc(SCc3ccccc3F)o2)cc1OC,60%
Cc1ccc(OCCCC(=O)Nc2ccc(S(=O)(=O)Nc3cc(C)on3)cc2)cc1,10µM*[single pt active]
CC(=O)Oc1ccccc1C(=O)Oc1ccccc1C(=O)O,-9%[12.8 µM]
COCCn1c(-c2cc(OC)c(OC)c(OC)c2)nc2oc3ccccc3c(=O)c2c1=O,42%
CC(=O)NCc1cn2c(C)csc2n1,2%
CC(C)=C1C(=O)C(c2ccccc2)=C2CN3C(=O)N(CCc4ccccc4)C(=O)[C@]3(Cc3ccccc3)[C@H]21,3%
COc1ccc(CNCC(=O)Nc2cc(C)nn2-c2nc(C)cc(C)n2)cc1OC,25%
O=C(c1cc(-c2cccs2)on1)N1CCN(c2ccc(F)cc2)CC1,-1%
Cc1nc(N2CCCC2C(=O)O)c2oc3ccccc3c2n1 (stereo unspecified),-2%
Cc1cccc(-c2nnc(SCC#N)n2-c2cccc(Cl)c2)c1,33%
COC(=O)c1[nH]c2cccc(OC)c2c1NC(=O)CCN1CCN(c2cccc(Cl)c2)CC1,128%
CC(C)Oc1ccc(NC(=O)Oc2ccccc2)cc1,2%
NC(N)=NC(=O)c1nc(Cl)c(N)nc1N,-16%
Cc1ccc(C23CC4CC(CC(NC(=O)N5CCN(C)CC5)(C4)C2)C3)cc1,108%
CC(C)(C)OC(=O)N[C@@H](Cc1ccccc1)c1nnc(S(=O)(=O)Cc2cccc(F)c2)o1,4µM*
Cc1ccc(-c2nc(CS(=O)CC(=O)NCCC(C)C)c(C)o2)cc1 (stereo unspecified),108%
COc1ccc(OCc2nnc(SCC(=O)NCc3ccco3)o2)cc1,10%
CC(C)CNc1nc(Oc2ccc(=O)n(-c3ccccc3)n2)nc(N2CCOCC2)n1,100%
CCCc1nc(NC(C)=O)c(C#N)c(-c2ccco2)c1CC,23%
N#Cc1c(-c2ccccc2)nc(N2CCOCC2)[nH]c1=O,-13%
CC1C=Cc2ccccc2N1C(=O)c1ccccc1 (stereo unspecified),-4%
O=C(NCCC1=CCCCC1)c1ccc(Cl)c(S(=O)(=O)N2CCOCC2)c1,52%
COc1ccccc1CNc1ncncc1-c1ccccc1OC,30%
O=C(c1cccs1)n1cc(C(=S)N2CCOCC2)c2ccccc21,25%
CC(Cc1ccccc1)C(=O)N(C)Cc1ccccc1 (stereo unspecified),-4%
CCC(C)O (stereo unspecified),-8%
CN(C)c1ccc(C=Nc2ccccc2C(N)=O)cc1,5%
O=C(OCC(=O)c1cccs1)C1=COCCO1,2%

(further entries)
mol | AmpC nodet inh
COc1cc2cc(CN(CCN3CCCC3)C(=O)Nc3ccc(F)cc3)c(=O)[nH]c2cc1OC | 55%
CC(=O)c1c(C)[nH]c(C(=O)OCC(=O)Nc2ncc(Cl)c(C)c2Cl)c1C | 1%
CN1CCN(c2cc(-c3ccc(N(C)C)cc3)ncn2)CC1 | 34%
Cc1ccc(Cn2nnc3c(=O)n(CC(=O)N4CCN(c5ccccc5)CC4)cnc32)cc1 | 48%
COCCn1c(=O)c(-c2cc(F)cc(F)c2)nc2cnc(N(C)C)nc21 | -4%
c1ccc(-c2nnc3sc(-c4cc5ccccc5o4)nn23)cc1 | 52%
COC(=O)C1=C(N)Oc2cc(C)n(CCCn3ccnc3)c(=O)c2C1c1cccc(Cl)c1 (stereo unspecified) | 100%
O=C(NCc1ccccn1)C1CCN(S(=O)(=O)c2cnc[nH]2)CC1 | -4%
O=C(Nc1ccc2c(c1)OCCO2)C1CCCN1S(=O)(=O)c1ccc(Cl)cc1 (stereo unspecified) | 5%
NC(=O)CSc1nnc(-c2ccncc2)n1CCc1ccccc1 | -9%
CCC(=O)Nc1ccc(Br)c(Cl)c1 | -9%
ClC1=C(Cl)C2(Cl)C3C4CC(C5OC45)C3C1(Cl)C2(Cl)Cl (stereo unspecified) | -9%
CCOC(=O)CSc1ccc2nnc(-c3ccccc3)n2n1 | 31%
Cc1ccc(C(C)C)c(OCC(=O)Nc2ccc(N3CCN(S(C)(=O)=O)CC3)cc2)c1 | 66%
CCOC(=O)C(NC(=O)c1ccc(F)cc1)(Nc1nnc(C)s1)C(F)(F)F (stereo unspecified) | 4%

Shown as labelled records: entries from further up.
CCC(=O)Nc1ccc(Br)c(Cl)c1
  AmpC nodet inh: -9%
COC(=O)C1=C(N)Oc2cc(C)n(CCCn3ccnc3)c(=O)c2C1c1cccc(Cl)c1 (stereo unspecified)
  AmpC nodet inh: 100%

A few values from the results shown:
ClC1=C(Cl)C2(Cl)C3C4CC(C5OC45)C3C1(Cl)C2(Cl)Cl (stereo unspecified) in AmpC nodet inh has -9%
CCC(=O)Nc1ccc(Br)c(Cl)c1 in AmpC nodet inh has -9%
CN1CCN(c2cc(-c3ccc(N(C)C)cc3)ncn2)CC1 in AmpC nodet inh has 34%
Cc1ccc(C(C)C)c(OCC(=O)Nc2ccc(N3CCN(S(C)(=O)=O)CC3)cc2)c1 in AmpC nodet inh has 66%

Other results follow.
mol | AmpC nodet inh
O=C(OCC1COc2ccccc2O1)c1ccccc1F (stereo unspecified) | 9%
COc1cccc(NC(=O)N2CCCC(C(=O)Nc3ccccc3OC)C2)c1 (stereo unspecified) | 19%
COC(=O)c1ccc(NC(=O)CCn2c(=O)oc3ccccc32)cc1 | -7%
Cc1cccc(C)c1NC(=O)c1cc(S(=O)(=O)N2CCOCC2)ccc1F | -5%
Cc1c(C#N)c2ncnc(-c3ccccc3)c2n1-c1ccccc1 | 3%
COc1ccc(OCCN2CCN(C3CC(=O)N(CCC(C)C)C3=O)CC2)cc1 (stereo unspecified) | 92%
O=C(CN1C(=O)CCC1=O)Nc1ccc(S(=O)(=O)N2CCOCC2)cc1 | -5%
O=C(Nc1nnc(SCC(=O)N2CCCCC2)s1)C1CCCCC1 | 16%
Cc1nc2ccccc2n1-c1ccccc1 | 20%

Sorted by molecular weight (falling): 3 of the compounds above.
mol | AmpC nodet inh
Cc1cccc(C)c1NC(=O)c1cc(S(=O)(=O)N2CCOCC2)ccc1F | -5%
O=C(CN1C(=O)CCC1=O)Nc1ccc(S(=O)(=O)N2CCOCC2)cc1 | -5%
O=C(OCC1COc2ccccc2O1)c1ccccc1F (stereo unspecified) | 9%

Reprinted at random: two records from the list, in no set order.
mol | AmpC nodet inh
O=C(OCC1COc2ccccc2O1)c1ccccc1F (stereo unspecified) | 9%
O=C(CN1C(=O)CCC1=O)Nc1ccc(S(=O)(=O)N2CCOCC2)cc1 | -5%
